Bioassay records as filed in PubChem.
PrP UTR inh: suppresses PrP 5' UTR mRNA reporter expression; cell-based PrP 5' UTR mRNA reporter, plate reader; inhibition, % (concentration not given with the values); hit rate 0.35% among 340,000;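 active = every replicate at 50% or more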;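 also: 0 = median of the neutral control wells; tested in H4 reporter cells; numbers are from one replicate; inactives centre near -14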
Autofluor counter: counter-screen for toxin protease inhibitors: compound fluorescence; compound autofluorescence counterscreen, microsphere flow cytometry; hits give high values; fluorescence intensity (concentration not given with the values); hit rate 3.1% among 360,000; AID 624483;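 active = at least 3 SD above the mean of all compounds, about 16000 in these data; inconclusive = too few beads counted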;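 also: 100 nL of 1 mM stock went into each well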
Mtb hypoxia inh: Mtb hypoxia fluorescent reporter inhibition; fluorescence inhibition, % (concentration not given with the values); M. tuberculosis hypoxia-regulated fluorescent reporter, fluorescence; AID 1159583; hit rate 0.1% among 300,000;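 active = 35 to 45% if threefold the growth effect, above 45% if 1.5-fold the growth effect; inactive = the rest, general growth blockers included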;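 also: wells of about 50 µL received 100 nL stock; 0% = vehicle wells and 100% = reference inhibitor wells; whole bacteria with a GFP reporter of the hypoxia response; strong numbers were not always called active; many hits fall short of the cut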
BJeLR lethal: kills HRASV12-expressing BJeLR cells; AID 1554; inhibition, % (no concentration beside the values); hit rate 0.17% among 300,000; BJeLR (HRASV12) viability, CellTiter-Glo ATP luminescence, 48 h; reference of the scale not given here;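 active = replicate mean above 50%; inconclusive = above 50% but judged a plate artefact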;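 also: 50 nL library stock added to about 25 µL; numbers are from one replicate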
ugtP null kill: compounds lethal to S. aureus RN4220 ugtP deletion mutant; OD600 growth, 16 h; some inactives read as strong as hits; growth inhibition, % (test concentration not listed); hit rate 0.54% among 330,000;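 active = z-score under -3 and OD600 up to 0.15 on both plates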;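 also: plate controls were untreated wells for no effect and antibiotic for full effect; wells of about 80 µL received 100 nL stock; the first replicate is given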
RN4220 kill: S. aureus RN4220 growth inhibition; OD600, 16 h; inhibition, % (concentration not given with the values); hit rate 0.33% among 330,000; AID 1259311;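 active = z-score of -3 or lower and OD600 up to 0.18 on both plates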;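 also: plate controls were untreated cells for no effect and reference antibiotic for full effect; stock transfer was 100 nL into about 80 µL; one replicate is shown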
Mtb hypoxia inh growth: also measured in Mtb hypoxia inh; calls as there; growth inhibition, %; measured here: M. tuberculosis growth (absorbance);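 0% = vehicle and 100% = reference antibiotic; read after six days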
Active calls of the source: *; ? = inconclusive; . = no result given; & = joins results of further samples.

SMILES	PrP UTR inh	Autofluor counter	Mtb hypoxia inh	Mtb hypoxia inh growth	BJeLR lethal	ugtP null kill	RN4220 kill
O=C(CCC(=O)N1CCCCCC1)Nc1ccc([N+](=O)[O-])cc1	0	5880	6	0	6	-3	0.9
OC1C(O)C(O)C(O)C(O)C1O (configuration not stated)	7&28&-13	5762&5887&4214	5&2&2	-3&-6&1	-3&-17&-1	-4&-2&1	7.5&2.4&4.2
CC(C)C(c1nnnn1C(C)(C)C)N1CCN(Cc2cccnc2)CC1 (configuration not stated)	-26	3505	12	9	7	11	2.3
Nc1ccc(C(=O)Nc2ccc(OC(F)(F)C(F)F)c(NC(=O)c3ccc(N)cc3)c2)cc1	-22	10451	-2	8	-5	-6	5.5
COC(C(=O)Nc1ccnn1C1CCN(Cc2cccc(C)n2)CC1)c1ccccc1 (configuration not stated)	-4	4961	-11	7	-13	-9	-1.8
Cc1ccc(C(=O)NC(Cc2c[nH]c3ccccc23)C(=O)O)cc1 (configuration not stated)	-11	20051*	1	-4	-5	-2	1.8
O=C(CN(Cc1ccco1)C(=O)c1ccccc1F)Nc1ccccc1C(F)(F)F	-12	3313	-4	-1	.	-2	1.4
Cc1ccc(-c2noc(C3CCCN(C(=O)c4ccccc4Br)C3)n2)o1 (configuration not stated)	-23	3635	0	-3	-11	-1	1.4
CCOc1cccc(C(=O)Nc2cnn(Cc3ccccc3)c2)c1	-15	4738	.	.	-6	7	-3.5
CC(=O)C1=C(C)NC(SCc2ccc(C#N)cc2)=C(C#N)C1c1ccco1 (configuration not stated)	-2	2093	11	4	.	6	14
CCN(c1ccc(Cl)cc1)S(=O)(=O)c1nnc(NC(=O)C(C)C)s1	-1	3398	-11	-14	2	7	8.3
C[C@H](NC(=O)c1ccco1)C(=O)NC1CCCCCC1	-19	5359	17	5	.	2	7.2
CC(C)(C)C1CCC(=NNC(=O)c2cc3c(s2)CCCC3)CC1 (configuration not stated)	-1	2119	-8	-4	11	2	0.8
CSc1ccc(C(=O)C2CCCN(S(=O)(=O)N(C)C)C2)cc1 (configuration not stated)	-6	3246	11	9	-4	1	4.8
CN1CCCN(C(=O)CNC(=O)c2ccccc2F)CC1	4	3616	-7	6	.	5	3.3
Cc1ccc(S(=O)(=O)N2CC(O)CC2C(=O)NCc2ccc3c(c2)OCO3)cc1 (configuration not stated)	-10	3833	4	13	-5	4	5.6
Cc1cccc(C(=O)O/N=C/c2ccc(Br)cc2)c1	-51	4211	.	.	-6	.	.
CC(=O)c1ccc(NC(=S)NC(NC(=O)c2ccco2)C(Cl)(Cl)Cl)cc1 (configuration not stated)	2	2480	.	.	13	-10	-8.2
CN(CCc1ccccc1)C(=O)c1cccc(NC(=O)Cc2cccc(NC(=O)C3CCCN(C(=O)C4CCCCC4)C3)c2)c1 (configuration not stated)	-8	3874	-1	5	.	-1	0.6
O=C1C2C3C=CC(CC3)C2C(=O)N1N=Cc1ccc(O)cc1 (configuration not stated)	.	.	-4	4	.	2	0.9
COc1ccc(NC2C=CS(=O)(=O)C2)c(OC)c1 (configuration not stated)	-14	7287	10	-10	11	11	4.1
C=C(C)CSc1nc2sc3c(c2c(=O)n1-c1ccccc1)CCN(C)C3	-52	4836	5	-9	-14	52	-2.8
Cc1cc([N+](=O)[O-])ccc1NC(=O)CCC(=O)N1CCCCC1	4	5911	4	11	0	2	3.8
CCN(CC)CCNC(=O)c1ccc(Cl)c(S(=O)(=O)Nc2ccc(Cl)cc2)c1	-25&-18	3833&4807	9	0	0	6	-2.9
CCN(CC)C(=O)C1CCN(S(=O)(=O)c2cccc3nonc23)CC1	-2	8877	-3	4	-4	-8	-3.2

Other entries
SMILES	PrP UTR inh	Autofluor counter	Mtb hypoxia inh	Mtb hypoxia inh growth	BJeLR lethal	ugtP null kill	RN4220 kill
O=C(CN1CCN(c2ccc(F)cc2)CC1)Nc1ccc2c(c1)OCCO2	-17	5866	15	6	-8	4	4.2
Cc1ccc2nc(NC(=O)C3CCN(c4ncnc5sc(C)c(C)c45)CC3)sc2c1	12	4351	-4	-2	-5	4	-1.4
O=C1CC(=O)C(n2cncn2)C(c2cccc(Cl)c2)C1 (configuration not stated)	-17	21751*	0	5	5	1	5.9
COc1ccc2c(c1)CCc1c(C(=O)NCC(C)C)noc1-2	-49	4295	13	2	1	2	3.6
CNC(=S)NNC(=O)c1sc2cc(C(F)(F)F)cnc2c1-c1cccnc1	-2	3417	14	7	1	6	4.4
COc1ccc(C2CC(c3ccccc3)=NN2c2ccc(S(N)(=O)=O)cc2)cc1 (configuration not stated)	-15	3890	17	8	0	9	24
O=C(NC(=S)N1CCN(C/C=C/c2ccccc2)CC1)c1ccc(F)cc1	-24	.	-3	9	-4	13	0.5
O=C(Nc1ccc(NC(=O)c2ccc3c(c2)OCCO3)cc1)c1ccccc1	-7	3544	8	-8	-3	-8	5.0
COc1cc2c(cc1OC)CN(CC(=O)Nc1ccccc1C(=O)NC1CC1)CC2	-19	6639	4	10	.	-1	-1.9
Cc1ccc(NC(=O)CN2C(=O)CC(C)S(=O)(=O)c3ccccc32)cc1 (configuration not stated)	-10	5155	2	5	1	4	0.0
CC1(c2ccccc2Cl)NC(=O)N(CC(=O)Nc2ccc3c(c2)OCO3)C1=O (configuration not stated)	-18	3216	9	-5	12	3	0.2
CN1C(=O)N(CN2CCCCC2)C2C1N(C)C(=O)N2CN1CCCCC1 (configuration not stated)	-15	3257	6	1	-12	3	2.1
CCCCC(=O)NS(=O)(=O)c1ccc(N=NN2CCCCC2)cc1	-35	7390	5	-3	11	-14	4.2
O=C(O)c1ccc(Oc2ccc(S(=O)(=O)c3ccc(C(=O)O)c(C(=O)O)c3)cc2)cc1	2	2862	12	1	3	-2	0.3
COc1ccc(Cl)cc1C(=O)N1CCN(Cc2ccc3c(c2)OCO3)CC1	-26	4210	6	6	-6	8	4.2
Cc1ccc(NC(=O)CN2C(=O)S/C(=C\c3cccn3C)C2=O)cc1	-27	5680	3	2	3	0	4.1
COc1ccc(C(C)=O)cc1COC(=O)CSC(C)C(=O)Nc1cc(C)on1 (configuration not stated)	-11	?	0	0	8	2	2.9
COc1ccc(NS(=O)(=O)c2ccc(NS(=O)(=O)c3ccc(SC)cc3)cc2)c(OC)c1	-16	7927	0	3	-1	-1	15
Cc1cccc(C=Nn2c(C3CCCCC3)n[nH]c2=S)c1	.	.	3	-5	.	-11	1.4
COc1ccc(-n2nc3c(c2NC(=O)COc2ccccc2)CS(=O)(=O)C3)cc1	-5	5763	10	6	-3	11	5.0
O=S(=O)(Cc1ccc(Cl)cc1)c1ccccc1-c1nnc(-c2ccccc2)o1	4	2506	.	.	6	-12	-4.7
Cc1nn(C(C)C(=O)O)c(=O)c2c1sc1ccccc12 (configuration not stated)	-5	10975	0	-4	8	4	1.4
COc1ccc(NC(=O)c2ccco2)cc1NC(=O)c1c(F)c(F)c(OC)c(F)c1F	-10	2933	.	.	3	4	3.0
COc1ccc(OCC(O)CNC(C)c2ccccc2)cc1 (configuration not stated)	2	3148	8	-1	-5	14	2.8
CCOc1cc(C2C3=C(CC(C)(C)CC3=O)N(C)C3=C2C(=O)CC(C)(C)C3)ccc1O	-19	3630	-7	0	2	11	2.5

New compounds follow
SMILES	PrP UTR inh	Autofluor counter	Mtb hypoxia inh	Mtb hypoxia inh growth	BJeLR lethal	ugtP null kill	RN4220 kill
CON=C/C(C#N)=C/c1ccc(OC)cc1	.	.	13	-1	.	5	12
CCOc1cc(NC(=S)NCc2ccco2)c(OCC)cc1NC(=O)c1ccco1	-36	4346	3	4	-1	-1	20
CCOCCCn1c(SCc2nc3sc(C(=O)O)c(C)c3c(=O)[nH]2)nnc1-c1ccc(Cl)cc1	1	4238	-4	9	-10	3	6.0
Cc1ccc(SCc2ccc(C(=O)Nc3cccc([N+](=O)[O-])c3C)cc2)cc1	-22	9195	1	11	1	-19	-2.5
Cc1nn(C)c(C(=O)NNC(=O)NC2CCCCC2)c1Cl	-1	5440	-8	8	-5	1	-0.1
O=C(Nc1nnc(CCN2CCOCC2)s1)C1CCCCC1	-15	2631	.	.	-7	6	-0.1
CCOC(=O)c1c(NC(=S)NC(=O)c2ccc(Cn3cc(Cl)cn3)o2)sc2c1CCCCC2	-2	4584	7	10	-13	-11	-14
CCc1ccc(NC(=S)N2CCC(NC(=O)C3CCCCC3)CC2)cc1	-19	3480	0	3	-3	12	2.8
CCC(=O)n1nc(NCc2ccccc2OC)nc1NCc1ccccc1OC	-8	2029	.	.	5	12	-0.9
COc1ccc(NC(=O)c2cc(-c3ccccn3)nc3c(C)cc(C)cc23)c(C)c1	6	5620	-5	3	2	9	1.4
COc1ccc2nc(NC(=O)CCN3C(=O)c4ccccc4C3=O)sc2c1	-11	16754*	-4	14	-5	-5	2.8
COc1ccc(C=NNC(=O)c2ccccc2)cc1COc1ccc(F)cc1	.	.	2	7	.	-6	-0.8
CC(C)(C)C(=O)Nc1ccc(-c2nc3ccccc3c(=O)o2)cc1	-27	2659	-2	12	.	-16	-6.1
O=C(NN1C(=O)c2ccccc2NC1c1ccoc1)c1ccc([N+](=O)[O-])cc1 (configuration not stated)	-24	3160	9	0	4	15	23
Cc1cc(Nc2ccccc2)nn1C(=O)c1ccc([N+](=O)[O-])cc1	-26	3170	.	.	-11	-20	-35
CCOc1ccccc1NC1=NCC(=O)N1Cc1ccc(F)cc1	-13	9214	9	1	-7	5	1.7
Cc1cnc(C(=O)N2CCN(S(=O)(=O)c3cccc(Br)c3)CC2)cn1	-2	3492	-17	12	.	-2	-2.7
S=C(NCc1ccccn1)Nc1ccccc1Cl	-37	2054	3	7	0	1	4.6
Cc1ccc(S(=O)(=O)CC(=O)c2cc(C)c(OC(=O)N(C)C)c(C)c2)cc1	-3	4498	-2	0	-1	16	8.4
O=C(Nc1ccc(C(F)(F)F)cc1)c1csc(-c2ccncc2)n1	-21	3576	-4	-7	5	4	10
CC(=O)c1c(C)[nH]c(C(=O)OCC(=O)c2c(N)n(C)c(=O)n(C)c2=O)c1C	.	.	-16	-19	-3	-1	-5.2
COc1ccc(S(=O)(=O)NCCc2cn3nc(C)c(C)nc3n2)cc1C	-11	5245	10	9	-3	4	2.9
CC(C)Cc1nc(N2CCNCC2)c(C#N)c2c1CCC2	.	4473	16	2	-7	0	-0.4
CCc1cc(-c2n[nH]c(=S)n2-c2cccc(C)c2)cs1	-20	18843*	11	7	-3	4	1.7
CC1CCN(S(=O)(=O)c2cc(Cl)ccc2Br)CC1	-14	12013	20	14	8	1	3.6

Next section.
SMILES	PrP UTR inh	Autofluor counter	Mtb hypoxia inh	Mtb hypoxia inh growth	BJeLR lethal	ugtP null kill	RN4220 kill
C/C(=N/NC(=O)c1ccc2nc[nH]c2c1)c1cccs1	-35	2519	.	.	4	.	.
O=C(CCN1C(=O)c2ccccc2C1=O)CN1CCOCC1	-17	4400	5	0	4	6	11
COCCn1c(SCC(=O)N2CCCCC2)nc2ccccc2c1=O	14	10371	5	9	-2	0	0.4
CCCn1ncc(C=NO)c1C	.	.	10	-5	.	6	1.4
Cc1ccc(C2(C)NC(=O)N(CC(=O)NNC(=O)c3ccccc3)C2=O)cc1 (configuration not stated)	-1	8243	1	3	.	1	-1.3
CSC(=S)NN=Cc1ccc(Br)cc1	.	.	-4	0	.	8	2.1
CCOC(=O)C1=C(C)Nc2ncnn2C1c1ccc2c(c1)OCO2 (configuration not stated)	-16	10558	10	7	-4	3	4.5
Cc1cc(NC(=O)c2cc([N+](=O)[O-])cc([N+](=O)[O-])c2)no1	.	.	15	34	-3	8	19

Arranged by molar mass (ascending): six of the compounds above
SMILES	PrP UTR inh	Autofluor counter	Mtb hypoxia inh	Mtb hypoxia inh growth	BJeLR lethal	ugtP null kill	RN4220 kill
CCCn1ncc(C=NO)c1C	.	.	10	-5	.	6	1.4
C/C(=N/NC(=O)c1ccc2nc[nH]c2c1)c1cccs1	-35	2519	.	.	4	.	.
CSC(=S)NN=Cc1ccc(Br)cc1	.	.	-4	0	.	8	2.1
Cc1cc(NC(=O)c2cc([N+](=O)[O-])cc([N+](=O)[O-])c2)no1	.	.	15	34	-3	8	19
CCOC(=O)C1=C(C)Nc2ncnn2C1c1ccc2c(c1)OCO2 (configuration not stated)	-16	10558	10	7	-4	3	4.5
Cc1ccc(C2(C)NC(=O)N(CC(=O)NNC(=O)c3ccccc3)C2=O)cc1 (configuration not stated)	-1	8243	1	3	.	1	-1.3

Not a hit list (roughly 4% active in at least one column).
